# Tgondii IFNg: T. gondii growth inhibition with IFN-gamma, primary screen, cell-based; AID 1259416, 2018; 69,000 compounds, 3.8% hits; Toxoplasma gondii growth in IFN-gamma-treated host cells; hits give low values; reference of the scale not given here; activity change, negative = inhibition, %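 (about 20 µM by stock and volumes)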;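 active = below -70%; inconclusive = fit judged invalid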;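 also: host cells are HeLa cells infected with Toxoplasma gondii; parasite growth read as luciferase light; one replicate is shown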
# Active calls of the source: *; i = inactive; u = inconclusive; & = joins results of further samples. The list is partial. The share of hits here may be higher or lower than overall.
# Start of the listing, in advance, six compounds:
SMILES,Tgondii IFNg
O=C(c1ccccc1)N1CCOC(c2nc(-c3ccccc3)no2)C1 (stereo unspecified),108
CCC1=N[C@@]2(CC[C@@H]3CN(c4ncc(C)cn4)C[C@H]32)C(=O)N1CCOC,-6
O=C1C[C@@H](c2ccc(O)cc2)Oc2cc(O)ccc21,20
CCn1ncc(S(=O)(=O)N2CCC[C@@H]2Cn2nnc(-c3ccncc3)n2)c1C,-39
Cc1ccccc1Cn1c(-c2cncs2)nc2ccccc21,-7
NCc1ccc(S(=O)(=O)N2CCOCC2)cc1,-30

# The whole of this part, repeating the preview:
SMILES,Tgondii IFNg
O=C(c1ccccc1)N1CCOC(c2nc(-c3ccccc3)no2)C1 (stereo unspecified),108
CCC1=N[C@@]2(CC[C@@H]3CN(c4ncc(C)cn4)C[C@H]32)C(=O)N1CCOC,-6
O=C1C[C@@H](c2ccc(O)cc2)Oc2cc(O)ccc21,20
CCn1ncc(S(=O)(=O)N2CCC[C@@H]2Cn2nnc(-c3ccncc3)n2)c1C,-39
Cc1ccccc1Cn1c(-c2cncs2)nc2ccccc21,-7
NCc1ccc(S(=O)(=O)N2CCOCC2)cc1,-30
CCC(=O)N1[C@H](CO)[C@@H](c2ccccc2)[C@@H]1CN(CC)C(=O)c1cccc(F)c1,17
CC(=O)N1CC(=O)NCC12CCN(C(=O)Nc1ccccc1)C2 (stereo unspecified),-34
Cc1nc(C(F)(F)F)ccc1C(=O)N1CCC(c2ccccc2)C1 (stereo unspecified),33
Cc1nc(C(F)(F)F)nc(N2CCc3nnc(C4CCCO4)n3CC2)c1C (stereo unspecified),-1
CS(=O)(=O)NC1CC2(CCN(C(=O)c3ccsc3)CC2)C1,288
C[C@H]1CCCCO[C@H](CN(C)S(=O)(=O)c2ccc(F)cc2)[C@@H](C)CN([C@@H](C)CO)C(=O)c2cc(N(C)C)ccc2O1,i
COCC(=O)NCCC1CCCCN1 (stereo unspecified),-33
C[C@H](CO)N1C[C@H](C)[C@@H](CN(C)S(=O)(=O)c2cccs2)Oc2ccc(NC(=O)CCCCCC(=O)Nc3ccccc3N)cc2CC1=O,4
CO[C@H]1CN(C)C(=O)c2cc(NS(=O)(=O)c3cccc(Cl)c3)ccc2OC[C@@H](C)NC[C@@H]1C,44
NC(=O)CCn1cc(CN2CCOC3(CNCCOC3)C2)c2ccccc21 (stereo unspecified),0
Cc1ncsc1C(=O)N1CCCC(C(=O)c2cnn(-c3ccc(F)cc3)c2N)C1 (stereo unspecified),-11
Cc1cccnc1CN1CCC2(CC1)CC(NC(=O)c1ccnnc1)C2,266
CCOc1ccc(S(=O)(=O)NCCc2sc(-c3cccc(F)c3)nc2C)cc1,2
O=C(c1cnn2ccccc12)N1CCc2nnc(CCc3ccccc3)n2CC1,-11
O=C1CCC(=O)NCC/C=C/CCN1,38
COc1ccc(C[C@H]2CCn3cc(nn3)COC[C@H](c3ccccc3)NC2=O)cc1,-44
Cc1oc(-c2ccc(OC(C)C)cc2)nc1Cn1nnc(C(=O)Nc2ccc(F)cc2F)c1C,-110*
Cc1ccc2c(c1C)-n1cccc1C1(CCN(C(=O)COc3ccc(Cl)cc3)CC1)N2,-70
Cc1n[nH]c(C)c1Sc1ccc(C(F)(F)F)cn1,-7

# Random excerpt: 2 entries already listed.
SMILES,Tgondii IFNg
O=C(c1ccccc1)N1CCOC(c2nc(-c3ccccc3)no2)C1 (stereo unspecified),108
C[C@H]1CCCCO[C@H](CN(C)S(=O)(=O)c2ccc(F)cc2)[C@@H](C)CN([C@@H](C)CO)C(=O)c2cc(N(C)C)ccc2O1,i

# Next part.
SMILES,Tgondii IFNg
Cc1cccc2[nH]c(C3CCCN3S(=O)(=O)NCc3ccccc3)nc12 (stereo unspecified),4
CCOC(=O)c1cc(C)nc2c1c(=O)n(Cc1nc(-c3ccc(Cl)cc3)oc1C)c(=O)n2C,-15
CCCCC1CCC(C(=O)Nc2cc(C)nn2-c2ncnc3c2cnn3-c2ccc(C)cc2C)CC1 (stereo unspecified),21
CCN1C(=O)N(C2Cc3ccccc3C2)C(=O)C12CCN(Cc1ccc(Oc3ncccn3)cc1)CC2,-8
C[C@H]1CN([C@@H](C)CO)C(=O)c2ccccc2-c2ccccc2CO[C@H]1CN(C)S(=O)(=O)c1cccs1,58
CC(C)CCOC(=O)c1ccc(N(C)C)cc1,60
Cn1ccc2cc(S(=O)(=O)N3CCC(C(=O)NCCN4CCCC4)CC3)ccc21,-6
Cn1nccc1-c1nnn2c1COC(CNc1ncccn1)C2 (stereo unspecified),171
CC(=O)N1CCCC(OCC2=CCCN(Cc3cc(C)on3)C2)C1 (stereo unspecified),-48
O=C(NCCc1csc(-c2ccccc2)n1)C1CCN(C(=O)c2ccco2)CC1,-7
O=C(O)C1CC(N2CCOCC2)CCN1C(=O)Cc1ccsc1 (stereo unspecified),-4
CCC1CN(Cc2[nH]nc3cc(OC)ccc23)CCN1C(C)C (stereo unspecified),6
CC(C(=O)NC1CC1)N1CCc2[nH]nc(-c3ccc(-c4ccccc4)cc3)c2C1 (stereo unspecified),14
CCn1c(CC2CCN(Cc3ccc(OC)c(C)c3)CC2)nn(C)c1=O,5
CCn1c(C2CCN(C(=O)C(C)Cn3nc(C)nc3C)CC2)nn(C)c1=O (stereo unspecified),6
CNC(=O)[C@@H]1C[C@@H](N)CN1Cc1cnc(C(C)(C)C)nc1,-48
Cc1nc2ccc(Cl)cn2c1CN(C)Cc1nc(C2CC2)no1,-7
CCS(=O)(=O)Nc1ccc2c(c1)C(=O)N(C)[C@H]1CC[C@@H](CC(=O)N3CCN(C)CC3)O[C@H]1CO2,-3
NCCc1cnc[nH]1,-3&25&14
CN(CCNC(=O)CCSc1ccc2c(c1)OCCO2)S(C)(=O)=O,74
CC(C)Cn1cncc1CNC1CCSCC1,8
COc1ccc(CNC(=O)Cn2ncc3c(N4CCCCC4)ncnc32)c(OC)c1,30
COc1ccc(S(=O)(=O)N2C[C@@H](O)COC[C@@H]3O[C@H](CC(=O)N[C@H]4CCN(Cc5ccccc5)C4)CC[C@H]32)cc1,-15
Cc1nnc(N2C[C@H]3CN(C(=O)c4ccccc4)CCC[C@@]3(C(=O)N(C)C)C2)o1,-5
Cc1ccccc1NC(=O)Cn1ncc2c(N3CCCCCC3)ncnc21,15

# More records follow.
SMILES,Tgondii IFNg
CCN1CCO[C@H]2CN(S(=O)(=O)c3cn(C)cn3)CC[C@@H]2C1,-1
CCN(Cc1ccncc1)C(=O)c1ccc(C2CCNC2)cc1 (stereo unspecified),-2
COc1ccc(-c2cc(=O)c3c(O)cc(O)cc3o2)cc1O,86&114
N#Cc1c(N)oc(-c2ccccc2)c1-c1ccccc1,7
COCC1(C(=O)N(C)Cc2nc3ccc(C)cc3[nH]2)CCC1,-3
Cc1oc(-c2ccccc2)cc1C(=O)Nc1ccc2ccccc2c1,i
CC(C)CN1CCC(CNC(=O)c2ccc(-c3ccc4c(c3)OCO4)nc2)C1 (stereo unspecified),1
CC(=O)N1CCO[C@@H]2CN(S(=O)(=O)c3ccc(F)cc3)CC[C@@H]2C1,-5
CC(C)SCCn1nc(C2CCCNC2)n(-c2ccccc2)c1=O (stereo unspecified),1
Nc1cccc2c1C(=O)N(C1CCC(=O)NC1=O)C2=O (stereo unspecified),22
Cc1oc(-c2cccc(Br)c2)nc1CSc1nc2c(=O)[nH]cnc2n1-c1ccccc1,15
CCN1C[C@@H]2C3(CCN(C(=O)Nc4ccccc4)CC3)CC[C@@]2(C(=O)N2CCCC2)C1,-37
COc1ccc2c3c(n(C)c2c1)[C@@H](CO)N(C(=O)C1CCOCC1)CC31CN(C)C1,34
CCc1ccc(Nc2nc(C(=O)NCc3ccc(C)cc3)nc3ccccc23)cc1,-12
O=C1[C@@H]2C[C@H](O)CCN2C(=O)CN1CCCn1ccnc1,-8
Cc1ccc(C2(O)CCN(C(=O)c3cnc4c(c3)nnn4C)CC2)nc1,-3
O=C(Nc1ccsc1C(=O)O)c1ccc(Cl)cc1,i
COc1ccc(SCc2nsc(Sc3ccc(OC)cc3)n2)cc1,u
COc1ccccc1-c1ccccc1[C@@H]1[C@@H](CO)N(C(=O)CN(C)C)[C@H]1C#N,22
CCc1nc(CN2CCC3(CC2)C(=O)N(CCc2ccccc2)C(=O)N3C)c(C)[nH]1,-4
CCn1ccnc1CN(C)C(C)C(=O)N(C)C (stereo unspecified),6
Cc1cc(C(O)CN2CCN(c3nc4ccccc4o3)CC2)c(C)s1 (stereo unspecified),-12
CCOc1ccc(CCNC(=O)C2=C(C)C(=O)OC23CCN(S(=O)(=O)CC)CC3)cc1,15
CO[C@H]1CN(C)C(=O)c2cc(NC(=O)c3ccc4c(c3)OCO4)ccc2OC[C@H](C)N(CCC(F)(F)F)C[C@@H]1C,-60
O=C(c1cccnc1)N1CC2(CCN(C(=O)c3cscn3)C2)C1,-39

# The listing continues:
SMILES,Tgondii IFNg
C#CCSc1nccc(-c2sc(COc3ccccc3Cl)nc2C)n1,-23
COc1ccc(Br)cc1-c1nc(Cn2nnc(C(=O)Nc3ccccc3C)c2C)c(C)o1,120
Cc1nc2c(nnn2C[C@H]2CCCN2S(=O)(=O)c2ccc(F)cc2)c(=O)[nH]1,15
C[C@H]1CN([C@@H](C)CO)C(=O)c2cc(NC(=O)CCCN(C)C)ccc2O[C@@H]1CN(C)Cc1ccc(Cl)c(Cl)c1,-52
O=S(=O)(NCc1ccccc1)Nc1ccc(-n2ccnc2)cc1,4
COc1cccc(NC(=O)N2CCCC3(C2)Nc2cccnc2NC3=NC2CCCC2)c1 (stereo unspecified),-7
Cc1ccccc1NC(=O)CC(=O)N(C)Cc1n[nH]c2c1CCCC2,-46
C=CCn1c(=O)c(-c2nc(-c3cccc(F)c3)no2)c(O)c2ccccc21,13
O=C1NC(C(=O)N2CCc3[nH]nc(-c4ccc(C(F)(F)F)cc4)c3C2)CO1 (stereo unspecified),-4
CCCCC(=O)Nc1cc2nc(CCCC)n(Cc3ccccc3Cl)c2nc1C,-57
COc1ccc(NC(=O)Cn2c(=O)ccc3cc(S(=O)(=O)N4CCCC4)ccc32)cc1Cl,-58
O=C(CC1COCCN1)N1CC=C(c2ccc(F)cc2)CC1 (stereo unspecified),9
COc1cccc(-c2cccc(-c3nc(C(=O)O)cc4c3[C@H](CCO)N(S(=O)C(C)(C)C)C4)c2)c1 (stereo partly specified),9
CCOc1ccc(NC(=O)C(=O)NCCc2csc(-c3ccc(Cl)cc3)n2)cc1,52
CC(C)COC(=O)N1C[C@@H]2CN(C(=O)C3CC3)C[C@]2(C(=O)O)C1,72
CC(=O)Nc1ccc(S(=O)(=O)Nc2cncc(C(=O)Nc3cccc(C)c3C)c2)cc1,-16
COc1ccccc1-n1cc(C(=O)NCCc2n[nH]c3c2CCCC3)cn1,6
O=C(c1cc(CN2CCC(O)CC2)on1)N1CCCC1c1ccc(F)cc1 (stereo unspecified),7
CN(C)C(=O)c1ccc(-c2ccccc2[C@@H]2[C@@H](CO)N(C(=O)C3CC3)[C@H]2C#N)cc1,-29
CN1CCC2(CC1)CC(NS(=O)(=O)C1CC1)c1ccccc1O2 (stereo unspecified),-2
Cc1ccc(OCC(=O)Nc2ccc(-c3nc(-c4ccc(C)cc4)co3)cc2)cc1,51
C[N+](C)(C)[C@@H](Cc1c[nH]c(=S)[nH]1)C(=O)O,4
CCn1nc(C)cc1-c1nnc(SCc2ccc(C(F)(F)F)cc2)o1,-22
CN1CCN([C@H]2CN(Cc3cn[nH]c3-c3cccc(F)c3)C[C@@H]2O)CC1,-3
COc1cc(-c2cnc(N)cn2)cc(OC)c1OC,8

# Next part:
SMILES,Tgondii IFNg
Cc1nn2c(=O)/c(=C/c3ccccc3)sc2nc1=O,20
CN1CCOCC1c1nccc(NCc2cccnc2)n1 (stereo unspecified),29
CN1C(=O)c2cc(NC(=O)C3CCOCC3)ccc2OC[C@H]2O[C@H](CC(=O)NCCc3ccncc3)CC[C@H]21,-4
CN(CC(=O)NC1CCCCCCC1)Cc1nc(-c2cccnc2)no1,13
CC(C)N1Cc2cncn2CC(COc2ccc(C#N)cn2)C1 (stereo unspecified),106
Cc1c(C(=O)NCCSc2nccn2C)nnn1-c1ccccc1F,349
COc1ccc(S(=O)(=O)NCCc2sc(-c3ccc(Cl)cc3)nc2C)cc1OC,31
Cc1cc(C)n(-c2ccc(Cl)c(C(=O)Nc3nc(-c4cnn(C)c4)cs3)c2)n1,-11
CCOCC1CN(Cc2ccoc2)Cc2cn(C)nc21 (stereo unspecified),-7
O=C(c1ccco1)N1CCC2(CC1)Nc1cc(F)ccc1-n1cccc12,49
Cc1ccc(Cn2c(=O)c3nn(C)cc3n3c(=O)n(Cc4nc(-c5ccccc5)oc4C)nc23)cc1,-8
Cc1ccc(Cl)cc1N1CCN(c2c(C)c(C)nc3ncnn23)CC1,-33
Cc1oc(-c2ccc(C(=O)NCCc3ccco3)cc2)nc1CN1CCN(c2ccccc2)CC1,17
c1cc(CN2CC[C@@H]3[C@@H]2CCN3c2nncs2)co1,5
Cc1cccc(S(=O)(=O)N2CCOCC3(CCN(C)C3)C2)c1 (stereo unspecified),-1
CC1CCN(S(=O)(=O)c2ccc3c(ccc(=O)n3CC(=O)NCc3ccccc3)c2)CC1,-36

# Compounds listed so far that have a furan ring, fused or not:
SMILES,Tgondii IFNg
O=C(NCCc1csc(-c2ccccc2)n1)C1CCN(C(=O)c2ccco2)CC1,-7
N#Cc1c(N)oc(-c2ccccc2)c1-c1ccccc1,7
Cc1oc(-c2ccccc2)cc1C(=O)Nc1ccc2ccccc2c1,i
CCOCC1CN(Cc2ccoc2)Cc2cn(C)nc21 (stereo unspecified),-7
O=C(c1ccco1)N1CCC2(CC1)Nc1cc(F)ccc1-n1cccc12,49
Cc1oc(-c2ccc(C(=O)NCCc3ccco3)cc2)nc1CN1CCN(c2ccccc2)CC1,17
c1cc(CN2CC[C@@H]3[C@@H]2CCN3c2nncs2)co1,5

# Assay outcomes as filed in PubChem.
